# UCH37 DUB inh = inhibitors of human UCH37 deubiquitinase, primary screen, biochemical, Ub-AMC cleavage, fluorescence; Ubiquitin carboxyl-terminal hydrolase isozyme L5 (Homo sapiens), Q9Y5K5; purified proteasome/UCH37; inhibition, % (test concentration not listed); actives 0.33% (n = 330,000); AID 588478, 2011;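 active = mean of two replicates above 20%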;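 note: 0% = compound-free wells with enzyme and 100% = wells lacking proteasome; stock transfer was 100 nL into about 20 µL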
# Target sequence (Q9Y5K5 whole entry, looked up): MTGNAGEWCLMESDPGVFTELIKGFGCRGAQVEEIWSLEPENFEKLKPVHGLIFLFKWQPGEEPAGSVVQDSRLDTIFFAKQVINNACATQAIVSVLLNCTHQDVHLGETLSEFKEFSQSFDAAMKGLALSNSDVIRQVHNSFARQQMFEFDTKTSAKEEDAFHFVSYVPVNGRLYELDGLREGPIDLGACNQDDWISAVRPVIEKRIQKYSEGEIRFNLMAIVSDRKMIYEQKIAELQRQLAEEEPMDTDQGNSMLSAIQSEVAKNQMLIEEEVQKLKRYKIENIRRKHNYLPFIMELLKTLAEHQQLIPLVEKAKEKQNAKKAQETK
#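 Schedule: 30 min plus 25 min, room temperature / Material: human UCH37 within purified proteasomes / Technique: AMC fluorescence intensity at 355/460 nm / Buffer or medium: pH 7.4 Tris-HCl (50 mM) with ovalbumin, ATP-MgCl2, DTT / Controls: wells without proteasome as full block, compound-free enzyme plus substrate as uninhibited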
# RanGTP-Imp inh = inhibitors of RanGTP-importin-beta interaction, primary screen, biochemical, FRET, CFP-Ran, YFP-importin-beta, homogeneous | Ran GTPase (GTP-bound) - importin-beta complex | cell-free CFP-Ran/YFP-importin-beta FRET ratio | inhibition, % (no concentration beside the values) | actives 1.1% (n = 300,000) | AID 2216, 2009;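 active = most replicates above 15%; inconclusive = exactly half above 15%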;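 note: 0% = DMSO wells and 100% = Ran loaded with GDP instead of GTP; wells of about 40 µL received 100 nL stock; the first replicate is given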
# A1 inh = caspase 3/7 activation in MEF A1-2A-BIM cells, primary screen, A1 inhibitor project, cell-based, luminescence, HTS; Caspase-Glo 3/7 luminescence, 3 h; percent of clofoctol response, vehicle zero; caspase activation, % (no concentration beside the values); actives 0.066% (n = 330,000);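 active = over half of replicate activation scores above 10%, or exactly half above 10 with the replicate mean above 10; inconclusive = replicate mean below 10 yet half the replicates above 10; inactive = over half of replicates below 10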;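 note: wells of about 30 µL received 50 nL stock; many hits fall short of the cut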
# Beta apoptosis = inhibitors of cytokine-induced beta cell apoptosis, primary screen, luminescence | INS-1E cytokine-induced death, ATP luminescence, 48 h; percent of positive-control rescue, neutral wells zero | protection from apoptosis, % (test concentration not listed) | actives 0.8% (n = 300,000) | AID 435005, 2010;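 active = all replicates at 75% or more, or half of them and the mean; inconclusive = half reach 75% but not the mean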;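 note: 0% = cytokine-treated negative control wells and 100% = positive control rescue; higher means more ATP so stronger rescue from cytokine killing; wells of about 40 µL received 100 nL stock; the first replicate is given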
# B2AR ag = beta2AR agonists driving receptor internalization, primary screen, cell-based, FAP fluorogen, flow cytometry. Beta-2 adrenergic receptor (Homo sapiens), P07550. actives 0.43% (n = 340,000). Am2.2-beta2AR cells; reference of the scale not given here. response, % (concentration not given with the values). AID 504454, 2011;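 active = response above a set limit, near 3 SD of response in nonfluorescent compounds, cut at about 42% in these data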;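 note: stock transfer was 100 nL into about 11 µL; a reference agonist was the positive control; negative values mostly stem from fluorescent compounds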
# Target sequence (P07550 whole entry, looked up): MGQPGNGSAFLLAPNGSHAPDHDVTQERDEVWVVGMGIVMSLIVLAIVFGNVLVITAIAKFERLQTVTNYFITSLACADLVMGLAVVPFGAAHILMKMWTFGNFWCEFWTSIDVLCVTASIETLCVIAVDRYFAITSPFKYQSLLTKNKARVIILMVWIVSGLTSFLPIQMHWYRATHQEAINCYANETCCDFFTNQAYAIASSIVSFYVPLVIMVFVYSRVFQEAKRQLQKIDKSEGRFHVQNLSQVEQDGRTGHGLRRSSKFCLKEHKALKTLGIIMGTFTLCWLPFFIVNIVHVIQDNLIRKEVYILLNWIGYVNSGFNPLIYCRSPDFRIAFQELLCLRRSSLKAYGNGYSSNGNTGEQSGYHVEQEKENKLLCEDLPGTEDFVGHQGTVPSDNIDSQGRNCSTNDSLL
# T cruzi repl = inhibitors of intracellular T. cruzi growth, primary screen, luminescence, NIH3T3 host cells. T. cruzi beta-gal in NIH3T3, 90 h. inhibition, % (no concentration beside the values). actives 1.4% (n = 300,000);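 active = mean inhibition across valid replicates above about 55%, limit read from the data; inconclusive = mean below that limit but half or more replicates reach it; inactive = mean below it, under half of replicates reach it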;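 note: signal also drops with host cell toxicity which is not excluded here; 0% = plate median of DMSO wells and 100% = zero luminescence signal; higher percent means less beta-gal luminescence so fewer parasites; stock transfer was 50 nL into about 50 µL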
# LANA-H2A inh = blockers of LANA interaction with H2A/H2B – biochemical, FP readout, HTS, primary screen; Protein LANA1 (Human herpesvirus 8 type P (isolate GK18)), Q9QR71; cell-free LANA-H2A/H2B peptide, fluorescence polarization; inhibition, % (test concentration not listed); actives 0.6% (n = 320,000); in the data active = inhibition mostly above about 10%, no sharp cut-off; inactive = mostly below about 6.7%;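 note: stock transfer was 7.5 nL into about 10 µL; 0% = median of vehicle wells and 100% = median of positive control wells; one replicate is shown; the record names a cut of 25% in any replicate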
# Calb FLC = C. albicans growth inhibition with fluconazole, primary screen, CaCi-2 strain, Alamar Blue fluorescence; growth inhibition, % (concentration not given with the values); actives 0.57% (n = 300,000); AID 1979, 2009; C. albicans CaCi-2 (fluconazole-resistant clinical isolate) + fluconazole, 48 h;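 active = most replicates above 75%; inconclusive = exactly half above 75%; inactive = most below 75%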;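 note: all wells also contain fluconazole at 8 µg/ml as a sub-toxic cotreatment; 0% = median of DMSO wells and 100% = median of geldanamycin control wells; wells of about 8 µL received 7.5 nL stock; the first replicate is given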
# * hit, by the source's call; ? = inconclusive; . = no result given.
No.	Structure	UCH37 DUB inh	RanGTP-Imp inh	A1 inh	Beta apoptosis
1	NC1=NC(=O)C(Cc2cccc(Cl)c2Cl)S1 (stereo unspecified)	1.8	-1.7	0.3	-7
2	Cc1ccc(NC(=O)Cc2nnc(SCC(=O)c3ccc(Br)cc3)n2C)cc1	6.0	-4.3	-0.3	1
3	Cc1ccccc1C(=O)NC1CCN(CC(=O)NCc2ccccc2)CC1	-1.3	1.3	0.8	-1
4	Cc1ccc(NC(=O)C(C)OC(=O)c2ccc(NC(=O)CC#N)cc2)cc1S(=O)(=O)N1CCOCC1 (stereo unspecified)	-2.7	-1.0	-0.2	.
5	Cc1noc(C)c1CSc1nnc2cc(C)c3ccccc3n12	3.5	4.3	-0.7	-2
6	CC(C)OC(=O)Nc1ccc(Oc2c(F)c(F)c(F)c(F)c2F)cc1	5.1	6.7	?	0
7	O=C(CO/N=C/c1ccccc1O)NNC(=O)c1ccccc1Cl	.	3.6	0.0	-1
8	Cc1ccc(S(=O)(=O)Cc2ccc(C(=O)N3CCCC3)o2)cc1	7.8	-2.7	-0.2	-3
9	CCOC(=O)c1ccc(CNC(=O)c2n[nH]c(=O)c3ccccc23)o1	-1.0	-2.7	0.1	-17
10	O=S(=O)(Cc1ccccc1)N(O)c1ccccc1	3.3	-0.6	-0.6	-1
11	Cc1ccc(S(=O)(=O)Nc2nccs2)cc1[N+](=O)[O-]	4.2	0.5	0.4	-2
12	CCOC(=O)C1CCCN(C(=O)c2c(-c3ccccc3Cl)noc2C)C1 (stereo unspecified)	-1.6	1.9	0.5	-7
13	CCCc1nc(N2CCCC2)c(C#N)c2c1CCCC2	-195	-2.9	0.3	.
14	O=c1[nH]c(C2CCN(S(=O)(=O)c3ccc(C(F)(F)F)cc3)CC2)nc2c1nnn2Cc1ccccc1	1.1	-1.9	-0.2	-13
15	CSc1ccc(NC(=O)Nc2cccn(Cc3ccccc3F)c2=O)cc1	-13	4.8	-1.2	2

No.	B2AR ag	T cruzi repl	LANA-H2A inh	Calb FLC
1	11	-6	-0.8	47
2	-4	0	1.8	-16
3	2	17	-4.2	15
4	-3	-2	0.6	1
5	.	-4	-2.4	10
6	6	28	5.1	-1
7	-2	-38	-3.1	7
8	3	6	1.6	-4
9	-2	-4	5.7	1
10	77*	-5	-3.2	1
11	3	-11	-0.8	-3
12	1	-2	-2.8	6
13	-8	4	-0.1	?
14	11	9	1.2	23
15	1	59*	-2.1	-4

# Values in list order from the entries so far.
# Entries 2 to 10 in UCH37 DUB inh read 6.0, -1.3, -2.7, 3.5, 5.1, ., 7.8, -1.0, 3.3

# More compounds.
No.	Structure	UCH37 DUB inh	RanGTP-Imp inh	A1 inh	Beta apoptosis
16	C[C@@]12C(=O)N(CC3CCCO3)CC(=O)N1[C@H]1c3cc(Cl)ccc3OC[C@@H]1[C@@H]2c1ccccc1 (stereo partly specified)	6.0	.	0.7	2
17	CC(NC(=O)CCCCCCN1C(=O)c2ccccc2C1=O)c1ccc2c(c1)CCCC2 (stereo unspecified)	6.4	-3.6	-0.5	-1
18	CCOc1ccc(NC(=O)NC(=O)N(C)S(=O)(=O)c2ccc(C)cc2)cc1	-0.9	0.8	-0.9	-12
19	O=C(COC(=O)CSc1ccc(F)cc1)NNC(=O)c1ccc([N+](=O)[O-])cc1	2.1	1.2	-0.1	-7
20	N/C(=N\OC(=O)c1ccc(OCC(F)(F)F)nc1)c1ccc(Cl)cc1	0.2	-3.6	-0.8	-3
21	CC(C)(C)C1CCC2(CC1)C(C#N)=C(SCC(=O)Nc1ccccc1)NC(=O)C2C#N (stereo unspecified)	4.6	-5.9	0.6	45
22	CN(CC(=O)Nc1ccc(F)cc1)C(=O)CSc1nncs1	5.1	2.3	-0.8	.
23	COc1ccc(N2C(=O)c3ccccc3NC2c2cccnc2)cc1 (stereo unspecified)	-28	16*	0.1	-2
24	Cc1nc2ccccc2c(=O)n1NC(=O)Cc1ccc([N+](=O)[O-])cc1	3.7	-2.1	1.6	-2
25	O=C(N/N=C\c1cc(Br)ccc1O)c1ccc(S(=O)(=O)N2CCCCC2)cc1	.	2.0	1.8	100*
26	O=C(CSc1nc(=O)n2cc(Cl)ccc2n1)Nc1cccc2ccccc12	4.3	-5.3	.	.
27	C=C(C)c1cccc(C(C)(C)NC(=O)NC2CCN(Cc3ccccc3)CC2)c1	3.2	0.8	-1.3	5
28	COC(=O)CN1C(=S)N(Cc2ccccc2)C(=O)C1CC(=O)Nc1ccc(Br)cc1 (stereo unspecified)	-1.4	0.0	-0.1	5
29	CC1CCN(S(=O)(=O)c2ccc3c(c2)c(=O)c(C(=O)NC2CCCC2)cn3C)CC1	5.6	-0.2	-1.0	0
30	CC(C)(C)c1cc2ncnc(N3CCCCC3)c2s1	-4.6	6.7	0.2	7

No.	B2AR ag	T cruzi repl	LANA-H2A inh	Calb FLC
16	-4	.	2.0	.
17	-7	14	-4.9	3
18	-6	2	8.6	-7
19	-5	-6	1.2	.
20	0	-1	1.5	-10
21	9	-56	3.3	9
22	-3	-13	0.4	4
23	7	41	-2.1	-19
24	1	-1	6.4	-35
25	6	59*	4.6	-17
26	-3	0	.	2
27	7	55*	-2.9	0
28	5	-5	1.4	-4
29	-5	15	4.0	12
30	0	5	0.8	-21

# One compound at a time (already shown). Order of screens: UCH37 DUB inh | RanGTP-Imp inh | A1 inh | Beta apoptosis | B2AR ag | T cruzi repl | LANA-H2A inh | Calb FLC
# `CSc1ccc(NC(=O)Nc2cccn(Cc3ccccc3F)c2=O)cc1` across the screens: -13 | 4.8 | -1.2 | 2 | 1 | 59* | -2.1 | -4
# `O=C(CO/N=C/c1ccccc1O)NNC(=O)c1ccccc1Cl` across the screens: . | 3.6 | 0.0 | -1 | -2 | -38 | -3.1 | 7

# Reformatted: 7 of the compounds above.
nr | canonical_smiles | UCH37 DUB inh | RanGTP-Imp inh | A1 inh | Beta apoptosis | B2AR ag | T cruzi repl | LANA-H2A inh | Calb FLC
28 | COC(=O)CN1C(=S)N(Cc2ccccc2)C(=O)C1CC(=O)Nc1ccc(Br)cc1 (stereo unspecified) | -1.4 | 0.0 | -0.1 | 5 | 5 | -5 | 1.4 | -4
29 | CC1CCN(S(=O)(=O)c2ccc3c(c2)c(=O)c(C(=O)NC2CCCC2)cn3C)CC1 | 5.6 | -0.2 | -1.0 | 0 | -5 | 15 | 4.0 | 12
20 | N/C(=N\OC(=O)c1ccc(OCC(F)(F)F)nc1)c1ccc(Cl)cc1 | 0.2 | -3.6 | -0.8 | -3 | 0 | -1 | 1.5 | -10
21 | CC(C)(C)C1CCC2(CC1)C(C#N)=C(SCC(=O)Nc1ccccc1)NC(=O)C2C#N (stereo unspecified) | 4.6 | -5.9 | 0.6 | 45 | 9 | -56 | 3.3 | 9
19 | O=C(COC(=O)CSc1ccc(F)cc1)NNC(=O)c1ccc([N+](=O)[O-])cc1 | 2.1 | 1.2 | -0.1 | -7 | -5 | -6 | 1.2 | .
27 | C=C(C)c1cccc(C(C)(C)NC(=O)NC2CCN(Cc3ccccc3)CC2)c1 | 3.2 | 0.8 | -1.3 | 5 | 7 | 55* | -2.9 | 0
26 | O=C(CSc1nc(=O)n2cc(Cl)ccc2n1)Nc1cccc2ccccc12 | 4.3 | -5.3 | . | . | -3 | 0 | . | 2

# Other entries:
No.	Structure	UCH37 DUB inh	RanGTP-Imp inh	A1 inh	Beta apoptosis
31	CC(NS(=O)(=O)c1ccc(NC(=O)N2CCCCC2)cc1)c1ccccc1 (stereo unspecified)	1.1	-0.4	-0.4	-1
32	Cc1ccc(NC(=O)C2CCN(S(=O)(=O)c3ccc4c(c3)oc(=O)n4C)CC2)cc1	0.2	-0.2	-0.2	4
33	Nc1nc(C23CC4CC(CC(Cl)(C4)C2)C3)cs1	1.4	-0.2	0.4	-4
34	Cn1c(C(=O)NCC2CCCO2)cc2c(=O)n(C)c3ccccc3c21 (stereo unspecified)	-4.1	-1.7	0.6	1
35	O=c1oc2ccccc2c(O)c1CN1CCCCC1	7.1	-0.9	-0.4	-5
36	CCNC(=S)N(Cc1ccco1)Cc1cc2cc(OCC)ccc2[nH]c1=O	-80	?	0.0	-1
37	Fc1cccc(-c2cc3nc4c(c(NCc5ccco5)n3n2)CCCC4)c1	-28	2.1	-0.6	20
38	COc1ccccc1C(=O)Nc1ccc(C(=O)N2CCCCC2)cc1	2.9	1.6	-1.2	1
39	CCn1c(SCC(=O)O)nnc1C1CCCCC1	-2.1	?	0.0	2
40	CCOP(=O)(OCC)C(Nc1cccc(C(F)(F)F)c1)c1ccc(F)cc1 (stereo unspecified)	4.8	3.6	2.0	0
41	O=C(CC1C(=O)NCCN1CC1CCCCC1)NCCc1ccc(F)cc1 (stereo unspecified)	-17	-0.4	-0.1	0
42	O=C(Cn1nc(Cc2cccnc2)c2ccccc2c1=O)NCC1CCCO1 (stereo unspecified)	1.1	4.9	0.1	-3
43	Cc1nc2ccccc2n1CCCOc1ccccc1	1.8	-0.7	0.4	2
44	COc1cccc(OCC(O)CN2CCN(CCN3C(=O)c4cccc5cccc(c45)C3=O)CC2)c1 (stereo unspecified)	-7.0	4.4	-0.3	17
45	CCOC(=O)CCCCC(=O)c1[nH]c(=O)[nH]c1Cn1ccnc1	5.8	0.2	-0.9	-5
46	CCOC(=O)C1CN(S(=O)(=O)c2ccc(C)cc2)c2ccccc2O1 (stereo unspecified)	0.9	5.6	1.0	-1
47	COc1ccc(N2CCN(C(=O)c3cccc(N4C(=O)C5C6C=CC(C6)C5C4=O)c3)CC2)cc1 (stereo unspecified)	5.0	0.2	0.0	0
48	Cc1ccc(NC(=O)CSc2nc(C)c(C)c(C)n2)c([N+](=O)[O-])c1	1.3	-1.0	0.6	-5

No.	B2AR ag	T cruzi repl	LANA-H2A inh	Calb FLC
31	3	-9	0.7	-2
32	-10	24	5.9	-6
33	1	-17	-2.3	-20
34	-4	-9	-4.7	3
35	9	2	2.7	23
36	1	12	-3.2	-11
37	-2	41	5.2	11
38	4	4	0.3	2
39	-9	4	0.1	-2
40	3	4	-3.4	8
41	-1	20	4.1	-25
42	-14	-5	1.1	-3
43	4	-8	3.0	1
44	4	70*	5.0	-13
45	-2	-7	1.9	-3
46	-20	-9	-8.0	-3
47	-17	-2	0.2	12
48	-1	19	-3.6	-9
